Bioassay records (PubChem)
HPGD inh: qHTS Assay for Inhibitors of HPGD (15-Hydroxyprostaglandin Dehydrogenase); purified HPGD, NADH fluorescence kinetic, PGE2 substrate; Potency, µM, inactives show at the highest dose activity change, negative = inhibition, most hits filed as inhibitors; 150,000 tested, 4.3% active; AID 894, 2007; active = well fitted inhibition curve with a large enough effect (not every such curve was filed as active); inconclusive = small, poorly fitted or top-dose-only effect, or another doubt; inactive = no such curve, though single readings can be large or run the other way;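 further: top concentration of the series not given in the record; plate controls included wells without enzyme; inactives centre near -10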
Target sequence (P15428 whole entry, looked up): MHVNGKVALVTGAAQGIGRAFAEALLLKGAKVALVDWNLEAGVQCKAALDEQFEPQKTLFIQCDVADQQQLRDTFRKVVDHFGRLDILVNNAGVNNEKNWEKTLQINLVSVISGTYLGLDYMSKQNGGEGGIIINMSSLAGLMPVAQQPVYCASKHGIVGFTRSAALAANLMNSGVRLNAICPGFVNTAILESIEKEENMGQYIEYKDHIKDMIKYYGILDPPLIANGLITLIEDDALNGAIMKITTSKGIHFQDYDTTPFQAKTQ
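20 nM HPGD preincubated 15 min at room temperature with compound in 50 mM Tris-HCl pH 8, 0.01% Tween 20. Started with 1 mM NAD+ and 30 uM prostaglandin E2; NADH fluorescence (360/450 nm) read 5 times over 30-s intervals, last minus first.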
* marks the source's active call; other numbers are inactive results; ? = inconclusive; & = joins results of further samples. On the % scale 0 is the no-effect control and ±100 the full control effect; potency means the concentration at half of the fitted maximal effect.

SMILES	HPGD inh
COC(=O)[C@@]1(Cc2ccc(OC)cc2)[C@H]2c3cc(C(=O)N(C)C)n(Cc4c(CO)[nH]cc(C)c4=O)c3C[C@H]2CN1C(=O)c1ccccc1	-16%
Cc1c(NC(=O)C2CCN(S(=O)(=O)c3ccc(Cl)cc3)CC2)c(=O)n(-c2ccccc2)n1C	-14%
Cc1ccc(CNC(=O)c2nn(C)c(C)c2[N+](=O)[O-])cc1	-4%
Cc1csc2c(=O)n3c(nc12)CCCCC3	-3%
CC(C)C1C(C#N)=C(N)Oc2n[nH]c(-c3ccccc3)c21 (stereo unspecified)	-5%
CCn1c(SCC(N)=O)nc2sc3c(c2c1=O)CCCC3	-16%
CCOCCn1c(CN(Cc2ccccc2)Cc2ccccc2)nc2c1c(=O)n(C)c(=O)n2C	-18%
Fc1ccc(C(c2ccc(F)cc2)N2CCN(C/C=C\c3ccccc3)CC2)cc1	-12%&4%
COc1ccc(S(=O)(=O)N(CC(=O)N2CCN(C)CC2)c2ccccc2)cc1OC	-7%
O=C(CN1CCOCC1)N1CCc2ccccc2C(c2ccccc2)C1 (stereo unspecified)	-13%
O=C(Cn1c(=O)oc2ccccc21)Nc1ccc2c(c1)OCCO2	-28%
O=c1c2ccccc2c2ccccc2c(=O)n1CC1CCCO1 (stereo unspecified)	-10%
COCCNC(=O)C(C)N(c1ccc(Oc2ccccc2)cc1)S(C)(=O)=O (stereo unspecified)	-6%
COc1ccc(C2C=C(c3ccc(Br)cc3)Nc3nc(N4C(=O)CCC4=O)nn32)cc1 (stereo unspecified)	?
N#CC(c1ccc(Cl)cc1)c1ccc(Cl)nn1 (stereo unspecified)	-18%
CCOC(=O)C1=C(C)N(C)C(C)=C(C(=O)OCC)C1c1cccnc1	-10%
CCOc1ccc2nc(SCCNS(=O)(=O)c3ccccc3)sc2c1	-4%
CCCC(=O)Nc1ccc(NC(=O)C2CC2)cn1	-15%
Cc1nn(-c2ccc(F)cc2)c(Cl)c1/C=C/C(=O)OCC(=O)Nc1c(F)c(F)c(F)c(F)c1F	-9%
COc1ccc(OC)c(C2=NO[C@@H]3C(=O)N(c4cc(Cl)ccc4OC)C(=O)[C@H]23)c1	-23%
O=C(Nc1nnc(C2CC2)s1)C1Cc2ccccc2CN1S(=O)(=O)c1cccs1 (stereo unspecified)	-6%
O=C(Nc1ccccc1)c1ccsc1	?
CN1CCN(c2nc3c(c(=O)[nH]c(=O)n3C)n2CCSc2nc3ccccc3s2)CC1	-5%
O[C@@H]1[C@@H]2c3cc4c(cc3CN3CCC(=C[C@@H]1O)[C@H]23)OCO4	-4%
CCn1cc([N+](=O)[O-])c(C(=O)Nc2ccc3c(c2)OCCO3)n1	-16%
C=CCSc1nnc(-c2cc3c(-c4ccccc4)nn(C)c3s2)n1C	?
Cc1ccc(C(=O)Nc2ccc(S(=O)(=O)N3CCc4ccccc43)cc2)o1	0%
Cc1onc(-c2c(Cl)cccc2Cl)c1C(=O)NCCCN1CCOCC1	-3%
CC1CCN(c2nc3c(c(=O)n(C)c(=O)n3C)n2Cc2ccccc2)CC1	-4%
COCc1nnc(SCC(=O)Nc2cccc(Cl)c2C)n1-c1ccccc1	-9%
O=C(O)c1cc2cc(OCc3ccccc3)ccc2[nH]1	?
CCOC(=O)c1cccc(NC(=O)c2ccc(N(C)C)cc2)c1	-21%
Cc1cccc(C)c1NC(=O)c1cc2c(=O)c3ccccc3oc2nc1C(F)(F)F	-12%
Cc1cc(C(=O)N2CCN(c3ncccn3)CC2)cs1	-9%
Cc1sc(NC(=O)c2ccccc2)c(C(c2ccc(Cl)cc2)N2CCN(CCO)CC2)c1C (stereo unspecified)	?
O=C(Nc1ccc(O)cc1)C1CC=CCC1 (stereo unspecified)	-10%
COc1ccc(NC(=O)CN2C(=O)C(C)SC(C)C2=O)c(OC)c1 (stereo unspecified)	-9%
O=C(CCCC(=O)n1cnc2ccccc21)n1cnc2ccccc21	0%
O=C1Cc2ccccc2C(=O)N1Cc1ccccc1	?
Cc1ccc(Cl)c(OCC(=O)NCc2ccco2)c1	-30%
CCCOc1ccc(-c2csc(N)n2)cc1[N+](=O)[O-]	-17%
COc1ccc(CCNC(=O)c2cnc3ccccn3c2=O)cc1	-12%
CC1=NN(c2ccccc2)C(=O)/C1=C\C=C1/N(C)c2ccccc2C1(C)C	-19%
COc1ccc(OC)c(-n2nnnc2SCC(=O)NCc2ccc3c(c2)OCO3)c1	-9%
COc1ccc(C(O)Cn2c(=N)n(CCCN(C)C)c3ccccc32)cc1 (stereo unspecified)	0%
CCCC(=O)Nc1nnc(SCC)s1	-22%
CCOC(=O)C1=C(C)NC(=O)NC1c1cn(-c2ccccc2)nc1-c1cccs1 (stereo unspecified)	-10%
COc1cc2c(cc1NC(=O)c1cccc(Br)c1)CCCC2	-10%
Cc1cc(C)c(Cn2c(=O)n(CCCC(=O)NCc3ccco3)c(=O)c3sccc32)c(C)c1	-9%
CCCCc1nnc(NC(=O)C(C)Sc2nc(C)cc(=O)[nH]2)s1 (stereo unspecified)	?

Carrying on:
SMILES	HPGD inh
C#CC[N+](C)(C)CCCCCCCCCC	-10%
O=S1(=O)CC2N=C(N(Cc3c(F)cccc3Cl)c3ccccc3F)SC2C1 (stereo unspecified)	1%
CC(C)OCCCNCc1cccs1	0%
CC(C)(C)NCC1(CO)SC(N)=NC1=O (stereo unspecified)	-13%
CC(C)(C)C(=O)NC(=S)NCc1ccccc1	-5%
O=C(OCC(=O)N1CCN(C(=O)c2ccco2)CC1)c1cc(=O)c2ccccc2o1	-1%
CN(C)C(CNS(=O)(=O)c1ccc(Br)cc1)c1cccnc1 (stereo unspecified)	-16%
Cc1ccc(C2=CSC3=NS(=O)(=O)CCN23)cc1C	-8%
CC1(C)CC(=O)c2cc(OCC(=O)NCC3CCCO3)ccc2O1 (stereo unspecified)	?
CCn1cc(/C=N\NC(=O)Cc2ccc([N+](=O)[O-])cc2)c(C)n1	-10%

Exported with bars between the fields: entries from further up.
structure | HPGD inh
Cc1ccc(Cl)c(OCC(=O)NCc2ccco2)c1 | -30%
CCCOc1ccc(-c2csc(N)n2)cc1[N+](=O)[O-] | -17%
COc1ccc(CCNC(=O)c2cnc3ccccn3c2=O)cc1 | -12%
CC1=NN(c2ccccc2)C(=O)/C1=C\C=C1/N(C)c2ccccc2C1(C)C | -19%
COc1ccc(OC)c(-n2nnnc2SCC(=O)NCc2ccc3c(c2)OCO3)c1 | -9%
COc1ccc(C(O)Cn2c(=N)n(CCCN(C)C)c3ccccc32)cc1 (stereo unspecified) | 0%
CCCC(=O)Nc1nnc(SCC)s1 | -22%
CCOC(=O)C1=C(C)NC(=O)NC1c1cn(-c2ccccc2)nc1-c1cccs1 (stereo unspecified) | -10%
COc1cc2c(cc1NC(=O)c1cccc(Br)c1)CCCC2 | -10%
Cc1cc(C)c(Cn2c(=O)n(CCCC(=O)NCc3ccco3)c(=O)c3sccc32)c(C)c1 | -9%
CCCCc1nnc(NC(=O)C(C)Sc2nc(C)cc(=O)[nH]2)s1 (stereo unspecified) | ?
C#CC[N+](C)(C)CCCCCCCCCC | -10%
O=S1(=O)CC2N=C(N(Cc3c(F)cccc3Cl)c3ccccc3F)SC2C1 (stereo unspecified) | 1%
CC(C)OCCCNCc1cccs1 | 0%
CC(C)(C)NCC1(CO)SC(N)=NC1=O (stereo unspecified) | -13%
CC(C)(C)C(=O)NC(=S)NCc1ccccc1 | -5%
O=C(OCC(=O)N1CCN(C(=O)c2ccco2)CC1)c1cc(=O)c2ccccc2o1 | -1%
CN(C)C(CNS(=O)(=O)c1ccc(Br)cc1)c1cccnc1 (stereo unspecified) | -16%
Cc1ccc(C2=CSC3=NS(=O)(=O)CCN23)cc1C | -8%
CC1(C)CC(=O)c2cc(OCC(=O)NCC3CCCO3)ccc2O1 (stereo unspecified) | ?
CCn1cc(/C=N\NC(=O)Cc2ccc([N+](=O)[O-])cc2)c(C)n1 | -10%

Following part.
SMILES	HPGD inh
CCn1cc(C(=O)NCc2ccco2)c(=O)c2cc(S(=O)(=O)N3CCCCCC3)ccc21	-24%
COc1cccc(/C=N/NC(=O)c2cc3c(OC)cccc3[nH]2)c1OC	-27%
ONC(=Nc1ccc(Cl)cc1)c1ccccc1	-3%
COc1cc(C2CC(=O)Oc3c(C(C)C)ccc(C)c32)cc(OC)c1OC (stereo unspecified)	-4%
O=C(NNc1nc2ccccc2s1)c1ccc(F)cc1	-11%
COCCn1c(SCc2nc3cc(OC)c(OC)cc3c(=O)[nH]2)nnc1-c1ccncc1	-7%
Cc1c(Cl)c([N+](=O)[O-])nn1CC(=O)N1CCCc2ccccc21	0%
Cc1cc(C)cc(-n2c(C)cc(/C=N/NC(=O)CN(c3c(C)cccc3C)S(C)(=O)=O)c2C)c1	-12%
CCCOc1ccc(NC(=O)C2CCCNC2=O)cc1 (stereo unspecified)	2%
Cc1cc(C)c2c3c(sc2n1)C(=O)N(C)CC(=O)N3	-14%
CCOC(=O)c1c(NC(=O)CC(C)C)sc(C(C)=O)c1C	-15%
Cc1ccc(C(=O)COC(=O)CNC(=O)c2ccco2)cc1	-4%
COc1ccc(/C=C(\C#N)C(=O)N2CCOCC2)cc1Br	16µM*
Cc1cc(C)nc(NC2=NCC(=O)N2c2ccc3c(c2)OCCO3)n1	-11%
COc1ccc(-n2cnnc2SCC(=O)Nc2ccc(N3CCOCC3)cc2)cc1	-17%
Cc1ccc(Nc2cnn(C34CC5CC(CC(CC(=O)O)(C5)C3)C4)c(=O)c2Cl)cc1	-19%
CC12CCC(C(=O)N3CCCCCC3)(OC1=O)C2(C)C (stereo unspecified)	-2%
O=C(O)c1cccc(-c2nc3ccccc3[nH]2)c1	?
COc1cccc2c(=O)c(C(=O)NCc3cccs3)c[nH]c12	?
O=C(NCCCN1CCN(Cc2ccccc2)CC1)C1CCN(S(=O)(=O)N2CCCC2)CC1	-6%
O=C(CSc1nnc(-c2ccc(O)cc2)n1Cc1ccco1)N1CCc2ccccc2C1	-19%
CC(C)NC(=O)c1ccc2c(=O)n(Cc3ccco3)c(=S)[nH]c2c1	-17%
O=C(COc1ncnc2c(Cl)cc(Cl)cc12)Nc1cc([N+](=O)[O-])ccc1Cl	-10%
Cc1nc2c(C(=O)NCCC(C)C)c[nH]n2c(=O)c1Cc1ccccc1F	-22%
COc1cccc(NCc2ccc([N+](=O)[O-])s2)c1	-5%
c1cnc(-c2nnc3n2CCCCC3)cn1	-30%
Cc1ccc(N2CCN(CCCN3C(=O)C4CCCN4C3=O)CC2)cc1 (stereo unspecified)	-7%
Cc1ccc(C(=O)NC(=S)Nc2ccc(S(=O)(=O)N(C)c3ccccc3)cc2)cc1	-7%
O=C(NCc1ccccn1)c1c(O)c2cccc3c2n(c1=O)CC3	-20%
Sc1ccc2ccccc2c1CNCc1ccccc1	-7%
O=c1c2sc3nc(N4CCOCC4)c4c(c3c2nnn1Cc1ccccc1)CCCC4	-25%
CCOC(=O)/C=c1\s/c(=C\c2ccc(C)cc2)c(=O)n1CC(=O)NCc1ccco1	-26%
COc1ccc(-c2nnc(SCC#CCO)o2)cc1OC	-8%
O=C1CCC=C1C(O)c1ccc2c(c1)OCO2 (stereo unspecified)	0%
COc1ccc(C)cc1S(=O)(=O)N(CC(=O)N1CCOCC1)Cc1ccccc1	-4%
CCOC(=O)CSc1nnc(CNC(=O)c2ccc(OC)cc2OC)n1C	-13%
CN(C1CCCCC1)S(=O)(=O)c1ccccc1	-21%
CCc1nc(SCC(=O)c2ccc(Cl)s2)c2oc3ccccc3c2n1	?
CCC(Oc1ccc2ccccc2c1)C(=O)O (stereo unspecified)	-24%
c1cnc(N2CCSCC2)nc1	-3%

Next section, starting with the last 2 of the part before.
SMILES	HPGD inh
CCC(Oc1ccc2ccccc2c1)C(=O)O (stereo unspecified)	-24%
c1cnc(N2CCSCC2)nc1	-3%
O=S(=O)(NCC1CCCO1)c1cnc(Cl)c(Cl)c1 (stereo unspecified)	-16%
N=c1ncn(CC(O)CN2CCOCC2)c2nc(N3CCOCC3)[nH]c12 (stereo unspecified)	-7%
COc1ccc([N+](=O)[O-])cc1NC(=O)CSc1ccc2ccccc2c1	-6%
COc1ccc(/C=N/NC(=O)CCSc2nc3ccccc3s2)cc1OC	-16%
COc1ccc(CNC(=O)c2ccc3nccnc3c2)cc1	-7%
Cc1cccc(N(CC(=O)N/N=C/c2cc([N+](=O)[O-])ccc2Cl)S(C)(=O)=O)c1C	-14%
NC(=O)C1(N2CCCCC2)CCN(C2CC(=O)N(Cc3ccc(N4CCCC4=O)cc3)C2=O)CC1 (stereo unspecified)	3%
Cc1ccc(N[C@H](c2ccccc2)c2ccc3cccnc3c2O)cc1	-7%
CCc1c(C(=O)Nc2cc(C)cc(C)c2)[nH]c(C)c1C(C)=O	-6%
C=CCn1c(CCCOc2ccc(Cl)cc2Cl)n[nH]c1=S	?
COC(=O)c1ccc(CSc2nc(C)nc3c2c(=O)n(C)c(=O)n3C)o1	-6%
COc1cc(NC(=O)Cc2nn(C)c(=O)c3ccccc23)cc(OC)c1	-10%
COC(=O)c1ccc(C(=O)OC)c(NC(=S)N2CCCC(C)C2)c1 (stereo unspecified)	-4%
COc1cccc(CNC(=O)C2CCN(C(=O)N(C)C)CC2)c1	-1%
CCOC(=S)N/C(=N\S(=O)(=O)c1ccc(C)cc1)c1ccccc1	25µM*
O=C(Cn1cc2c(n1)CCCCC2)N1CCCCC1	-10%
COc1ccc(-c2[nH]c(-c3ccc(F)cc3)nc2SCC(=O)NCc2ccco2)cc1OC	-10%
c1cncc(-c2nnc3sc(-c4ccco4)nn23)c1	-21%
Cc1cccc(Nc2nnc(SCC(=O)Nc3ccccc3[N+](=O)[O-])s2)c1C	?
COc1ccc(CCNC(=O)c2nnn(-c3ccccc3OC)c2N)cc1OC	-6%
Cc1cc(C)c2nc(C(F)(F)F)nc(N3CCN(C(=O)c4ccco4)CC3)c2c1	-24%
O=C(Nc1cccc(O)c1)c1ccc(Br)c(S(=O)(=O)N2CCCCC2)c1	-8%

Only part of the results is shown (hit frequency here may not be typical).
